Mtb H37Rv: M. tuberculosis H37Rv growth inhibitors, H37Rv strain (AID 1626); M. tuberculosis H37Rv growth inhibition; higher % means a stronger effect; inhibition, % at 10 µM; hits with a dose series show IC50 in µM; 220,000 tested, 0.95% active;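 active means confirmed in a dose series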;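 further: bacteria incubated seven days before Alamar blue readout; 0% = bacteria only wells and 100% = bacteria with antibiotic wells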
YopH PTP inh: YopH tyrosine phosphatase inhibitors, primary screen, biochemical, fluorescence Ex485/Em525; 140,000 tested, 0.16% active; YopH tyrosine phosphatase [Yersinia enterocolitica]; inhibition, %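 (about 10 µM by stock and volumes)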;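 active means inhibition of 50% or more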;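 further: controls were vehicle for no effect and minimum signal wells for full effect; inactives centre near -20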
Arbovirus inh: antivirals against arbovirus infection, primary screen, cell-based, full library, 10K replicate subset. arbovirus infection cell-based antiviral screen. inhibition, % at 10 µM. 200,000 tested, 0.37% active;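 active means inhibition from about 30%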;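 further: bluetongue infection of BSR cells; cell survival read as ATP light after 72 h; 0% = infected wells without compound and 100% = uninfected wells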
RecA splice inh: Mtb RecA intein splicing inhibitors, primary screen, biochemical, fluorescence, HTS | Protein RecA (Mycobacterium tuberculosis (strain ATCC 25618 / H37Rv)), P9WHJ3 | cell-free RecA intein splicing | inhibition, %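 (about 9 µM by stock and volumes)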 | 290,000 tested, 0.75% active | AID 2221, 2009; in the data active means inhibition above about 30%;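 further: 0% = vehicle wells and 100% = reference inhibitor control wells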
Mtb bLac sens: beta-lactam sensitization of Mtb H37Rv, H37Rv. 330,000 tested, 0.27% active. M. tuberculosis H37Rv growth with meropenem, percent inhibition; hits of this screen are not shown here. inhibition, % at 25 µM;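 active means about 74% or more and at least 40 points above the plate without the antibiotic, then above 30% in a dose series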;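 further: growth measured after seven days incubation then overnight dye step; 0% = bacteria only wells and 100% = bacteria with antibiotic; twin plates without the antibiotic show which effects depend on it; some results filed as inactive read as strong as hits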
The depositor's hits bear a star; x = no result given. Only part of the results is shown; count on the stated rates, not on these rows.

Start of the data: the first four records as a preview:
entry | Structure | Mtb H37Rv | YopH PTP inh | Arbovirus inh
1 | O=C(NCc1cccnc1)c1ccc(=O)oc1 | -4% | 2 | 5
2 | Cc1ccc(Cn2c(=O)c3c(nc4n3CCCN4Cc3ccccc3)n(C)c2=O)cc1 | 76% | -58 | 10
3 | CC(C)c1ccccc1NC(=O)c1ccccc1NC(=O)C1CCCCC1 | 4% | -18 | -6
4 | CCOC(=O)C1CCC/C1=N\NC(=O)CN(c1cc(OC)ccc1OC)S(=O)(=O)c1ccccc1 (centres undefined) | x | x | x

entry | RecA splice inh | Mtb bLac sens
1 | 1.2 | 6
2 | 3.2 | -1
3 | 1.2 | -4
4 | 0.1 | 0

This part in full, from the first entry:
entry | Structure | Mtb H37Rv | YopH PTP inh | Arbovirus inh
1 | O=C(NCc1cccnc1)c1ccc(=O)oc1 | -4% | 2 | 5
2 | Cc1ccc(Cn2c(=O)c3c(nc4n3CCCN4Cc3ccccc3)n(C)c2=O)cc1 | 76% | -58 | 10
3 | CC(C)c1ccccc1NC(=O)c1ccccc1NC(=O)C1CCCCC1 | 4% | -18 | -6
4 | CCOC(=O)C1CCC/C1=N\NC(=O)CN(c1cc(OC)ccc1OC)S(=O)(=O)c1ccccc1 (centres undefined) | x | x | x
5 | C[C@H](NC(=O)OCc1ccccc1)C(=O)NNC(=O)[C@H](C)NC(=O)OCc1ccccc1 | -9% | x | x
6 | C=CCOc1ccc(/C=C/C(=O)OCC(=O)NC2CCCCCCC2)cc1 | x | x | x
7 | CCC(C)c1ccccc1OCCCNC1CCCC1 (centres undefined) | x | x | x
8 | CC(C)NC(=O)Cn1c(=O)c2c(ncn2Cc2ccccc2)n(Cc2ccccc2)c1=O | -3% | -8 | -6
9 | CCOC(=O)C1(Cc2ccccc2)CCCN(C(=O)c2cn[nH]c2)C1 (centres undefined) | x | x | x
10 | COCCCNC(=O)c1cccs1 | -8% | -10 | 7
11 | CCOc1ccccc1Nc1nnc(SCC(=O)Nc2ccc3[nH]c(=O)[nH]c3c2)s1 | -10% | x | 1
12 | Cc1cc(C(=O)NCC(=O)OCC(=O)Nc2ccc(OC(F)F)cc2)ccc1[N+](=O)[O-] | -2% | -22 | 11

entry | RecA splice inh | Mtb bLac sens
1 | 1.2 | 6
2 | 3.2 | -1
3 | 1.2 | -4
4 | 0.1 | 0
5 | 2.2 | -5
6 | -3.2 | 51
7 | -1.1 | 71
8 | -4.0 | 8
9 | 3.1 | -1
10 | -1.1 | -6
11 | 1.5 | -5
12 | 0.4 | -4

Further results.
entry | Structure | Mtb H37Rv | YopH PTP inh | Arbovirus inh
13 | CC(=O)Nc1nnc(CCN(CCc2nnc(NC(C)=O)s2)[N+](=O)[O-])s1 | 5% | x | x
14 | CCCCn1c(N)c(N(CC(C)C)C(=O)c2cccc(S(=O)(=O)N3CCCCC3)c2)c(=O)[nH]c1=O | x | x | x
15 | O=c1c2ccccc2oc2cc(NCCCn3ccnc3)ccc12 | x | x | x
16 | CCc1cc(=O)oc2c(C)c(OCC(=O)N3CCCc4ccccc43)ccc12 | 11% | -3 | 6
17 | c1ccc(-c2ccccc2OCCOCCN2CCCCC2)cc1 | 8% | -1 | 10
18 | COc1ccc(CCNC(=O)CCCc2ccccc2)cc1OC | x | x | x
19 | O=c1oc2ccccc2c(N2CCC(c3ccccc3)CC2)c1[N+](=O)[O-] | 5% | x | 12
20 | Cc1cc(Cl)ccc1OCC(=O)N/N=C1\CC2C=CCC12 (centres undefined) | -1% | -35 | 0
21 | COc1cc(/C=N/NC(=O)c2nonc2N)cc(OC)c1OC | -11% | x | 1
22 | Cc1cc(=O)oc(C)c1C(=O)OCC(=O)c1ccc(Br)cc1 | 6% | -25 | 2
23 | CCC(CC)C(=O)Nc1nnc(SCC(=O)NC(C)(C)C)s1 | -8% | x | 14
24 | Cc1cc([N+](=O)[O-])nn1CC(=O)Nc1cc(F)ccc1F | -1% | x | -3
25 | CN(C)S(=O)(=O)c1cccc(-c2csc(N/N=C/c3ccco3)n2)c1 | 13% | x | x

entry | RecA splice inh | Mtb bLac sens
13 | x | -6
14 | 3.5 | -12
15 | -18 | 55
16 | 0.5 | -1
17 | 0.4 | 1
18 | -4.9 | -4
19 | 22 | -8
20 | -5.4 | 8
21 | -4.7 | -7
22 | 0.5 | 1
23 | -2.1 | 9
24 | -1.4 | -2
25 | 5.3 | 2

Pulled one by one from the entries so far, six records:
entry | Structure | Mtb H37Rv | YopH PTP inh | Arbovirus inh
24 | Cc1cc([N+](=O)[O-])nn1CC(=O)Nc1cc(F)ccc1F | -1% | x | -3
14 | CCCCn1c(N)c(N(CC(C)C)C(=O)c2cccc(S(=O)(=O)N3CCCCC3)c2)c(=O)[nH]c1=O | x | x | x
17 | c1ccc(-c2ccccc2OCCOCCN2CCCCC2)cc1 | 8% | -1 | 10
25 | CN(C)S(=O)(=O)c1cccc(-c2csc(N/N=C/c3ccco3)n2)c1 | 13% | x | x
16 | CCc1cc(=O)oc2c(C)c(OCC(=O)N3CCCc4ccccc43)ccc12 | 11% | -3 | 6
15 | O=c1c2ccccc2oc2cc(NCCCn3ccnc3)ccc12 | x | x | x

entry | RecA splice inh | Mtb bLac sens
24 | -1.4 | -2
14 | 3.5 | -12
17 | 0.4 | 1
25 | 5.3 | 2
16 | 0.5 | -1
15 | -18 | 55

Screening data deposited in PubChem by several laboratories.
